HPGD block: HPGD (human) dehydrogenase inhibition; P15428; purified HPGD, NADH fluorescence kinetic, PGE2 substrate; Potency, µM, inactives show at the top dose activity change, negative = inhibition, usual class: inhibitors; actives 4.3% (n = 150,000); AID 894; active = well fitted inhibition curve with a large enough effect (not every such curve was filed as active); inconclusive = small, poorly fitted or top-dose-only effect, or another doubt; inactive = no such curve, though single readings can be large or run the other way;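 also: top concentration of the series not given in the record; plate controls included wells without enzyme; inactives centre near -10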
Target sequence (P15428 whole entry, looked up): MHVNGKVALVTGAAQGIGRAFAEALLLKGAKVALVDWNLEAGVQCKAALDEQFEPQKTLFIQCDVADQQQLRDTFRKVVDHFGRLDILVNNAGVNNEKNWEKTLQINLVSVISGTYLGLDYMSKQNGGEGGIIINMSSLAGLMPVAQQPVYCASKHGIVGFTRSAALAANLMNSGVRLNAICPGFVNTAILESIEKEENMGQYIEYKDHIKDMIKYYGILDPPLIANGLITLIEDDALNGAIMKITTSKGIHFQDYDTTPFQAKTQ
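20 nM HPGD preincubated 15 min at room temperature with compound in 50 mM Tris-HCl pH 8, 0.01% Tween 20. Started with 1 mM NAD+ and 30 uM prostaglandin E2; NADH fluorescence (360/450 nm) read 5 times over 30-s intervals, last minus first.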
An asterisk follows results filed as active; ? = inconclusive; & = joins results of further samples. % is scaled to controls: 0 for no effect and ±100 for the full control effect; potency is read from the fitted curve at half-maximal effect. This is a subset; the hit share may differ from the screen's.

Start of the listing, in advance:
HPGD block | SMILES
-10% | COc1ccc(-n2c(C(C)n3nc(C)c([N+](=O)[O-])c3C)n[nH]c2=S)cc1 (configuration not stated)
-15% | CCOC(=O)c1c(C)[nH]c(C(=O)N/N=C/c2ccc(Br)cc2)c1C
-9% | [O-][N+]1=C2CCC/C(=N\O)C2=NC12CCCCC2
-13% | O=C(CSc1nc2ccccc2s1)Nc1ccc2c(c1)OCO2
-26% | CN(Cc1ccc(-n2cccn2)cc1)C(=O)c1cnn2c1NC(c1ccco1)CC2C(F)(F)F (configuration not stated)
? | O=C(Nc1cccs1)Nc1ccc(Br)cc1F
-22% | O=C(COc1cccnc1[N+](=O)[O-])N1CCN(S(=O)(=O)c2ccc3ccccc3c2)CC1
-8% | NCCC[C@@H](CC(=O)N[C@@H]1CCNC[C@H]1C(=O)N[C@H](CC(=O)N[C@@H](CCC(=O)O)CC(=O)O)Cc1ccccc1)NC(=O)C[C@H](CO)NC(=O)[C@@H]1CNCC[C@H]1N
-15% | CCOc1ncccc1C(=O)OCc1cc(=O)oc2c(C)c(C)ccc12
-4% | Nc1nc2c(ncn2C2OC(COC(=O)c3ccccc3)C(OC(=O)c3ccccc3)C2OC(=O)c2ccccc2)c(=O)[nH]1 (configuration not stated)
25µM* | CC(=O)N1CCc2cc(NS(=O)(=O)c3cccs3)ccc21
-9% | Cc1ccc(C(=O)NCCSc2ccccc2)cc1S(=O)(=O)Nc1ccccc1
-21% | CCOC(=O)c1c(NC2OC(=O)c3c2ccc(OC)c3OC)sc(C(=O)OC(C)(C)C)c1C (configuration not stated)
-6% | CCOc1cc(/C=N/N=C(\N)c2nonc2N)cc(Br)c1OCc1cccc2ccccc12
-8% | CCC(CC)c1nnc(NC(=O)c2ccc(S(=O)(=O)N3CCc4ccccc4C3)cc2)s1
? | Cc1c2cccn2cc[n+]1C
-22% | COc1ccc(C(=O)/C=C/c2ccccc2C(F)(F)F)cc1

Main list, from the start:
HPGD block | SMILES
-10% | COc1ccc(-n2c(C(C)n3nc(C)c([N+](=O)[O-])c3C)n[nH]c2=S)cc1 (configuration not stated)
-15% | CCOC(=O)c1c(C)[nH]c(C(=O)N/N=C/c2ccc(Br)cc2)c1C
-9% | [O-][N+]1=C2CCC/C(=N\O)C2=NC12CCCCC2
-13% | O=C(CSc1nc2ccccc2s1)Nc1ccc2c(c1)OCO2
-26% | CN(Cc1ccc(-n2cccn2)cc1)C(=O)c1cnn2c1NC(c1ccco1)CC2C(F)(F)F (configuration not stated)
? | O=C(Nc1cccs1)Nc1ccc(Br)cc1F
-22% | O=C(COc1cccnc1[N+](=O)[O-])N1CCN(S(=O)(=O)c2ccc3ccccc3c2)CC1
-8% | NCCC[C@@H](CC(=O)N[C@@H]1CCNC[C@H]1C(=O)N[C@H](CC(=O)N[C@@H](CCC(=O)O)CC(=O)O)Cc1ccccc1)NC(=O)C[C@H](CO)NC(=O)[C@@H]1CNCC[C@H]1N
-15% | CCOc1ncccc1C(=O)OCc1cc(=O)oc2c(C)c(C)ccc12
-4% | Nc1nc2c(ncn2C2OC(COC(=O)c3ccccc3)C(OC(=O)c3ccccc3)C2OC(=O)c2ccccc2)c(=O)[nH]1 (configuration not stated)
25µM* | CC(=O)N1CCc2cc(NS(=O)(=O)c3cccs3)ccc21
-9% | Cc1ccc(C(=O)NCCSc2ccccc2)cc1S(=O)(=O)Nc1ccccc1
-21% | CCOC(=O)c1c(NC2OC(=O)c3c2ccc(OC)c3OC)sc(C(=O)OC(C)(C)C)c1C (configuration not stated)
-6% | CCOc1cc(/C=N/N=C(\N)c2nonc2N)cc(Br)c1OCc1cccc2ccccc12
-8% | CCC(CC)c1nnc(NC(=O)c2ccc(S(=O)(=O)N3CCc4ccccc4C3)cc2)s1
? | Cc1c2cccn2cc[n+]1C
-22% | COc1ccc(C(=O)/C=C/c2ccccc2C(F)(F)F)cc1
-2% | Cc1cccc(OCC(=O)Nc2ccccc2N2CCN(C(=O)C(C)C)CC2)c1C
? | COC(=O)c1ccccc1NC(=O)CN1C(=O)C2CCCN2c2ncc(Cl)cc21 (configuration not stated)
-9% | COc1ccc(NC(=O)C2(c3ccc(NC(=O)c4ccc(OC)c(OC)c4)cc3)CCCC2)cc1
-11% | Cc1ccc(NC(=O)c2cc3ccccc3o2)cc1S(=O)(=O)N(C)C
? | COCCn1c(=N)c(C(=O)NCCc2ccc(OC)cc2)cc2c(=O)n3cccc(C)c3nc21
-3% | Cn1c(NC(=O)c2ccccc2)cc(=O)n(C)c1=O
-6% | CCN(CC)c1ccc(NC(=O)c2cccc(OC)c2)c(C)c1
-7% | CCOC(=O)C1CCCN(C(=O)c2cc(=O)c3ccccc3o2)C1 (configuration not stated)
-4% | CSc1cc(C)n(-c2ccc(Cl)cc2)c(=S)c1C(C)=O
0% | CC(=O)NNC1=Nc2ccccc2N(C)C(C)C1 (configuration not stated)
-6% | Cc1cc2occ(CC(=O)Nc3nnc(C4CC4)s3)c2cc1C
-11% | Cc1nc(S(=O)(=O)N(C)Cc2ccccc2)c(C#N)c(C)c1Cl
-4% | Cc1ccc(CNC(=O)CSCC(=O)O)cc1
? | O=C(NCCN1CCOCC1)c1ccc2c(c1)N(Cc1ccccc1)CCS2
-5% | CC(SCc1ccccc1)C(=O)N/N=C/c1cc2c(cc1Br)OCO2 (configuration not stated)
-13% | CCN1CCC(=NNC(=O)CC23CC4CC(CC(C4)C2)C3)CC1
0% | O=C(CN1C2CCCC1CC(NC(=O)c1ccccc1)C2)Nc1nccs1 (configuration not stated)
1% | CCCCOc1ccc(CNC(=O)NS(=O)(=O)c2ccc(OCC(C)C)cc2)cc1
-16% | COc1ccc(-c2csc(C3=C(O)CN(Cc4ccc(S(N)(=O)=O)cc4)C3=N)n2)cc1OC
-5% | Cc1onc(-c2ccccc2Cl)c1C(=O)Nc1ccc(N2CCOCC2)cc1
-11% | N#Cc1ccc(C23CC4(C2)[C@H](CN(CC2CCCCC2)[C@@H]4c2ccccc2)C3c2ccc(C(F)(F)F)cc2)cc1 (some centres not stated)
-30% | CC1CCN(c2ccc(C(=O)O)cc2NS(=O)(=O)c2ccc(Br)cc2)CC1
-6% | Cc1ccc(C(=O)CC(C(=O)O)c2cn(CCC#N)c3ccccc23)cc1 (configuration not stated)
? | CCOC(=O)N1CCN(C(=O)c2cn(CCOC)c(=O)c3c2c2ccccc2n3C)CC1
-12% | O=C(NCC1CCCO1)c1nnc(Cc2ccc(F)cc2)o1 (configuration not stated)
-6% | CCOC(=O)C1CCN(C(=O)C2c3ccccc3C(=O)N(C)C2c2ccc(OC)cc2)CC1 (configuration not stated)
-8% | CCOC(=O)N1CCN(C(=S)Nc2ccccc2C)CC1
-11% | CC1(C)CC(=O)C2=C(C1)N(N1CCOCC1)C(N)=C(C#N)C2c1cccnc1 (configuration not stated)
-9% | C/C(=N\O)C(=O)NCCN1CCCCC1
-9% | CC1Cc2ccccc2N1C(=O)COc1nc2ccccc2nc1N1CCOCC1 (configuration not stated)
-21% | COc1ccc2[nH]c(=O)c(CN(Cc3ccc4c(c3)OCO4)C(C)=O)cc2c1
-20% | CSc1nncn1/N=C/c1ccc2c(c1)OCO2
? | Cc1cccc(N(C)S(=O)(=O)c2ccc3[nH]cc(C(=O)N4CCOCC4)c(=O)c3c2)c1
-12% | Cc1cc(C)n2cc(CSc3nnnn3-c3ccc(Cl)cc3)nc2n1
1% | CCCCN1C(=O)N(C)C2NC(=O)NC21 (configuration not stated)
-10% | CC(=O)CSc1nnc(CSc2ncccn2)n1C1CCCCC1
-6% | O=C(NC1CCCC1)C(c1ccccc1)N(Cc1ccc2c(c1)OCO2)C(=O)Cc1cccs1 (configuration not stated)
-11% | COc1ccc(N2C(=O)CC(Nc3ccc(C)cc3)C2=O)cc1 (configuration not stated)
-12% | CCOc1ccc(Nc2oc(-c3ccc(Cl)cc3)nc2C#N)cc1
-18% | Cc1nn(CC(=O)Nc2sc3c(c2C#N)CCC(C(C)(C)C)C3)c(C)c1[N+](=O)[O-] (configuration not stated)
-7% | CC1CC(N(C(=O)c2ccco2)c2ccccc2)c2ccccc2N1 (configuration not stated)
1% | COCC(C)n1c(COc2ccccc2F)nnc1SCc1c(C)noc1C (configuration not stated)
1% | CCOc1ccc(OCCCCN2CCCC2)cc1

Remaining list, next part.
HPGD block | SMILES
0% | CCCS(=O)(=O)N1CCN(Cc2ccc([N+](=O)[O-])cc2)CC1
-21% | CN(C)c1ccc(/C=N/NC(=O)CN(c2cccc(Cl)c2)S(C)(=O)=O)cc1Br
-10% | COc1ccc(CN(C(=O)c2cccs2)c2nccs2)cc1OC
-3% | C[C@@H](CCC(=O)O)C(=O)O
-9% | COc1ccc(NC(=O)c2cccs2)cc1
7% | O=C(Oc1ccc(/C=N/NC(=O)c2ccccc2O)cc1)c1ccccc1
-5% | COc1ccc2nc(SCC(=O)NC3CCCc4ccccc43)[nH]c2c1 (configuration not stated)
-16% | NC(=O)c1ccc(-n2nc(C(F)(F)F)c3c2CCCC3)cc1
-11% | CCn1c(CC(C)C)n[nH]c1=S
-3% | Cc1cccc(NC(=O)c2ccc(NCCc3ccccc3)c([N+](=O)[O-])c2)c1
-13% | CCC(=O)Nc1nc2ccccc2n1CCN(CC)CC
16µM* | Oc1ccc(Cl)cc1-c1cc(-c2ccccc2)n[nH]1
-9% | Nc1[nH]c(=S)[nH]c(=O)c1N=Nc1c(Br)cc(S(N)(=O)=O)cc1Br
-11% | CCOC(=O)Nc1cc(C(=O)OCC)c(C)nc1C
-4% | COC(=O)c1cn(CC(=O)NCc2ccco2)c2ccccc12
22µM* | Cn1c(=O)c(C(=O)Nc2ncccc2O)c(O)c2ccccc21
-12% | Cc1nc(N2CCOCC2)[nH]c(=O)c1CCC(C)C
-23% | COC(=O)c1c(-c2ccncc2)csc1NC(=O)c1ccoc1C
6% | C=CCN1C(c2ccc(Br)cc2)=CS/C1=C(/C#N)c1nnc(N2CCOCC2)n1-c1ccccc1
-17% | Cc1cccc(C)c1OCC(=O)N/N=C/c1ccc2c(c1)OCO2
-3% | C=CCn1c(COc2ccccc2)nnc1SCC(=O)Nc1ccc2c(c1)OCCO2
-20% | Cc1nn(-c2ccc([N+](=O)[O-])cc2)c2c1C(c1cccc(Br)c1)N1C(=N2)C(=O)Nc2ccccc21 (configuration not stated)
? | Cc1cc(C)nc(NS(=O)(=O)c2ccc(N/C=C/C(=O)c3ccc(Cl)c(Cl)c3)cc2)n1
-5% | COc1ccc(CN(CCC(c2ccccc2)C2CCOC(C)(C)C2)C(C)=O)cc1 (configuration not stated)
-14% | CCOC(=O)c1cnn(-c2cc(C)nc3c(-c4ccc(Cl)cc4)c(C)nn23)c1N
-8% | CC1C(=O)N(C)C(=O)c2nc[nH]c21 (configuration not stated)
-18% | COc1ccc(-c2noc(CCCOc3ccc(Cl)cc3Cl)n2)cc1
-5% | COc1ccc(-n2nc(C(=O)N3CCCCC3)c3ccccc3c2=O)cc1
-19% | N#CCCn1cc(C(CC(=O)c2ccccc2)C(=O)O)c2ccccc21 (configuration not stated)
-9% | C=CCC1(C#N)C(=S)NC2=C(C(=O)CC(C)(C)C2)C1c1ccc(Br)cc1 (configuration not stated)
? | COc1ccc(OC)c(NC(=O)c2cnc(Nc3ccccc3OC)c3ccccc23)c1
-20% | COc1cc(OC)c(Nc2cc(C)nc3nc(C)nn23)cc1Cl
-18% | Cc1nn(C)c(C)c1CNC(=O)/C=C/c1ccccc1F
-11% | Cc1csc(NC(=O)c2ccco2)n1
? | COc1ccc2cc(C(=O)NCc3ccco3)c(=O)oc2c1
-2% | CSc1cccc(NC(C)=O)c1
? | CCCCCCCCC(=O)NCc1cc(OC)c(O)cc1I
-21% | CC(=Nc1ccc(C)c(C)c1)C1=C(O)CCC1=O
-9% | COc1cccc(OCC(O)CN2CCC(Cc3ccccc3)CC2)c1 (configuration not stated)
5% | CN(C)CCCN(C(=O)c1cc2ccccc2oc1=O)c1nc2c(F)cccc2s1
? | COC(=O)c1cc2ccccc2c(=O)s1
3% | O=C(c1ccccc1C(=O)N1CCN(c2ccc(F)cc2)CC1)N1CCN(c2ccc(F)cc2)CC1
-13% | N/C(=N\OC(=O)c1ccc(Cl)c(Cl)c1)c1ccccn1
-1% | O=C(OCC(=O)N1CCN(C(=O)c2ccco2)CC1)c1ccccc1C(=O)c1ccccc1
-15%&-15% | COC(=O)[C@@]1(Cc2ccc(F)cc2)[C@H]2c3cc(C(=O)N(C)C)n(Cc4ccccc4)c3C[C@H]2CN1C(=O)c1ccccc1
-1% | Fc1ccccc1Sc1ccccc1CNC1=NCCN1
? | CC(C)CC(=O)Nc1ccc2oc(-c3ccncc3)nc2c1
-17% | CCOC(=O)CSc1ncc(OC)c(=O)[nH]1
-25% | OC1c2ccccc2-c2nc3ccccc3cc21 (configuration not stated)
-8% | CS(=O)(=O)N(Cc1ccccc1)c1ccc(C(=O)NCc2ccccc2)cc1
6% | CC(C(=O)Nc1cc([N+](=O)[O-])ccc1Cl)N1CCN(c2ccccc2)CC1 (configuration not stated)
-10% | Cc1ccc(S(=O)(=O)Nc2ccc(S(=O)(=O)NC(C)(C)C)cc2)cc1
2% | CC(=O)N(CC(O)CN(C(C)=O)c1c(I)c(C(=O)NC[C@@H](O)CO)c(I)c(C(=O)NC[C@@H](O)CO)c1I)c1c(I)c(C(=O)NC[C@@H](O)CO)c(I)c(C(=O)NC[C@@H](O)CO)c1I
-11% | CCn1c(SCC(=O)Nc2nc(-c3ccc(C)cc3)cs2)nnc1-c1ccccc1O
-11% | CN1CCC(=NNc2ncnc3sc4c(c23)CCCC4)CC1
5% | COC(=O)C(NC(=O)c1ccccc1)=C(C)C
-5% | CC(=O)Nc1ccc(NC(=O)COC(=O)C2(c3ccc(Cl)cc3)CCCC2)cc1
7.9µM* | N#Cc1cc2c([nH]c1=S)CCCCCC2
-10% | Cn1cnnc1SC(C(=O)Nc1cccc(C(F)(F)F)c1)c1ccccc1 (configuration not stated)
-13% | COCCCNC(=O)c1ccc(N(C)S(C)(=O)=O)cc1
-11% | COC(=O)c1cc(-c2ccc(OC)c(OC)c2)n[nH]1
-6% | CCOC(=O)C1CCN(S(=O)(=O)Cc2ccccc2)C1=O (configuration not stated)
